Source: PubChem BioAssay
VDR inhibitor: inhibitors of human vitamin D receptor; Potency, µM, without a hit: max response, negative = inhibition, hits mostly inhibitors; VDR-SRC2-3 peptide fluorescence polarization, 2 h; hit rate 0.93% among 400,000; P11473; active = well fitted inhibition curve with a large enough effect; inconclusive = small, poorly fitted or top-dose-only effect, or another doubt; inactive = no such curve, though single readings can be large or run the other way; also: series mostly up to about 120 µM
Target sequence (P11473 whole entry, looked up): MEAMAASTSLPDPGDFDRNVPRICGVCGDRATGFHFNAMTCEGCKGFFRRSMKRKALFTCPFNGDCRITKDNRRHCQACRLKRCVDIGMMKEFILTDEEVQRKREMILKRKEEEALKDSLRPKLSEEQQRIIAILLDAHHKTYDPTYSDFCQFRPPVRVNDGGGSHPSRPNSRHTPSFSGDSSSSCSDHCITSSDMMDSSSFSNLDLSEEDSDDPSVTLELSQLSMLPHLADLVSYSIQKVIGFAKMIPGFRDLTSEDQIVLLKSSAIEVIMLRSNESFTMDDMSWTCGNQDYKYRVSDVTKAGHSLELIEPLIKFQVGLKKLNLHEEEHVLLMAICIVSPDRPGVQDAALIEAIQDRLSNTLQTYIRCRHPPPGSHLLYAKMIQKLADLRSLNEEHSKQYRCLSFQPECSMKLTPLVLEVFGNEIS
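Compounds are added to VDR with labelled SRC2-3 coactivator peptide and held 2 h at room temperature. Inhibition of the VDR–peptide interaction is then read as a change in fluorescence polarization.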
* = called active by the depositor; ? = inconclusive; & = joins results of further samples. % is scaled to controls: 0 for no effect and ±100 for the full control effect; potency is read from the fitted curve at half-maximal effect. These rows are one share of the data; count on the stated rates, not on these rows.

VDR inhibitor | Structure
-4% | C/C(=N/NS(=O)(=O)c1ccc(C)cc1)c1c(O)c2ccccc2oc1=O
0% | CC(C)CC(NC(=O)C1CCCN1C(=O)[C@@H](C)NC(=O)OCc1ccccc1)C(=O)NCC(N)=O (stereo partly specified)
-5% | O=C(O)CS(=O)(=O)c1ccc(Oc2ccc(S(=O)(=O)CC(=O)O)cc2)cc1
18% | O=C(NCCCn1ccnc1)c1ccc(S(=O)(=O)Nc2ccccc2)cc1
-2% | Cc1nc(SCC(=O)NCCc2ccccc2)c2c(=O)n(C)c(=O)n(C)c2n1
-13% | COc1cc(/C=C/C(=O)OCC(=O)c2c(N)n(C)c(=O)n(C)c2=O)ccc1O
9% | CC(C)(C)OC(=O)N1CCC(CNC(=O)c2ccccc2)CC1
-3% | CN(C)S(=O)(=O)c1ccc(C(=O)NCc2cccs2)cc1
-1% | Cc1cnccc1NC(=O)c1cccs1
19% | CCc1nnc(NC(=O)CN2CCN(Cc3cccc(F)c3)CC2)s1
-11% | O=C(CCCCn1c(=O)c2ccccc2n(CC(=O)Nc2ccc(F)cc2F)c1=O)NCc1ccccc1Cl
-4% | COc1ccc(C2OCC3(CO2)SC(N)=NC3=O)cc1 (stereo unspecified)
-5% | COc1ccc(-c2ccc3c(c2)[C@@H]2C[C@H](N(C)S(=O)(=O)c4ccccc4)[C@H]([C@H](C)O)C(=O)N2CC3)cc1
-16% | COc1cc(OC)cc(C(=O)OCC(=O)N2CCCC2)c1
-9% | COc1ccc(OC)c(NC(=S)N2CCN(C(=O)C3CCCO3)CC2)c1 (stereo unspecified)
-9% | CCOc1ccccc1C(=O)N(Cc1ccccc1)Cc1cc2cc3c(cc2[nH]c1=O)OCCO3
4% | CCOC(=O)N1CCN(S(=O)(=O)c2ccc3c(c2)SC(C)C(=O)N3)CC1 (stereo unspecified)
-1% | CCOC(=O)Cn1c(-c2ccc(Cl)nc2)nc2ccccc21
-7% | COc1ccccc1NS(=O)(=O)c1cccc(C(=O)NCc2ccco2)c1
2% | Cc1ccc2onc(CNC(=O)NCc3ccccc3)c2c1
-18% | CC(C)CC(NS(=O)(=O)OCC(Cl)(Cl)Cl)c1ccccc1 (stereo unspecified)
8% | O=C(Nc1ccccc1N(C(=O)c1ccco1)S(=O)(=O)c1cccs1)c1ccco1
-9% | Cc1ccc(C(=O)C[n+]2cccc3cc(C)ccc32)cc1
-24% | Cc1nn(CC(=O)NCCCN2C(C)CCCC2C)c(=O)c2cc3occc3n12 (stereo unspecified)
-15% | COC(=O)C1=C(C(=O)OC)[C@@H]2N(C)c3ccc(OC)cc3[C@@]23C[C@@H](C(=O)OC)N(C(=O)COCc2ccccc2)C3=N1

Compounds listed so far containing a halogen (4):
VDR inhibitor | Structure
19% | CCc1nnc(NC(=O)CN2CCN(Cc3cccc(F)c3)CC2)s1
-11% | O=C(CCCCn1c(=O)c2ccccc2n(CC(=O)Nc2ccc(F)cc2F)c1=O)NCc1ccccc1Cl
-1% | CCOC(=O)Cn1c(-c2ccc(Cl)nc2)nc2ccccc21
-18% | CC(C)CC(NS(=O)(=O)OCC(Cl)(Cl)Cl)c1ccccc1 (stereo unspecified)

The results go on.
VDR inhibitor | Structure
10% | O=C(Cn1cc([N+](=O)[O-])ccc1=O)NCc1ccc(Cl)cc1Cl
71µM* | NC(=O)c1c(NC(=O)C2CC=CCC2C(=O)O)sc2c1CCCCC2 (stereo unspecified)
-8% | COc1ccc(CCNC(=O)c2cccc(-n3cnnn3)c2)cc1
-7% | CC(C)CC(NS(=O)(=O)c1ccccc1)C(=O)O (stereo unspecified)
3% | CN(Cc1ccccc1)C(=O)c1[nH]cnc1C(=O)NCC(=O)OC(C)(C)C
6% | CCOC(=O)C1CN(S(C)(=O)=O)c2cc(CC(=O)OC)ccc2O1 (stereo unspecified)
-14% | NC[C@H]1O[C@H](O[C@H]2[C@H](O)[C@@H](O[C@H]3O[C@H](CO)[C@@H](O)[C@H](N)[C@H]3O)[C@H](N)C[C@@H]2N)[C@H](N)C[C@@H]1O
4% | CC(NC(=S)NC1CCC(C(C)(C)C)CC1)c1ccccc1 (stereo unspecified)
-19% | COCCNC(=O)C(c1ccc(C)o1)N(CC1CCCO1)C(=O)Cn1nnc2ccccc21 (stereo unspecified)
4% | COc1cccc(C2NC(=O)CCC2[N+](=O)[O-])c1 (stereo unspecified)
-19% | C[C@H]1CN([C@@H](C)CO)C(=O)c2cc(NC(=O)c3ccncc3)ccc2O[C@H]1CN(C)Cc1ccc(C(=O)O)cc1
-3% | CCCNC(=O)C(Cc1ccccc1C)NC(=O)c1ccc(C(F)(F)F)cc1 (stereo unspecified)
11% | Cc1nn(C)c2c1c(-c1ccccc1)cc(=O)n2Cc1ccc(Br)cc1F
-8% | Cc1csc(SCC(=O)NC(=O)NC(C)(C)C)n1
5% | CCN(C(=O)COC(=O)CNC(=O)c1ccc(C)cc1)c1c(N)n(Cc2ccccc2)c(=O)[nH]c1=O
? | O=C(NCc1ccco1)c1ccccc1Br
-19% | Cc1c(Cl)cccc1NC(=O)COC(=O)Cc1ccsc1
17% | CN(C)CC(C)(C)CNS(=O)(=O)CC12CCC(CC1=O)C2(C)C (stereo unspecified)
1% | COc1cc(OC)c(NS(=O)(=O)c2coc(C(N)=O)c2)cc1Cl
-15% | COc1ccc2ccc(=O)oc2c1CC(=O)C(C)C
10% | CCCc1cc(=O)oc2cc(C)cc(OCC(=O)NCC(O)c3ccccc3)c12 (stereo unspecified)
6% | Cc1ccc(S(=O)(=O)N2CCC(=O)N(C(COCc3cccc(C(F)(F)F)c3)Cc3ccccc3)CC2)cc1 (stereo unspecified)
-16%&3% | COc1cc(NC(=O)c2cccc(F)c2)ccc1NC(=O)c1cc2ccccc2o1
-11% | CCOC(=O)c1ccc(NC(=O)NCc2c(C)nn(CC)c2C)cc1
17% | Cc1ccc(NC(=O)NC2C(NC(=O)Nc3ccc(C)cc3)N(C)C(=O)N2C)cc1 (stereo unspecified)

Quoted at random: two records from the list
VDR inhibitor | Structure
6% | Cc1ccc(S(=O)(=O)N2CCC(=O)N(C(COCc3cccc(C(F)(F)F)c3)Cc3ccccc3)CC2)cc1 (stereo unspecified)
6% | CCOC(=O)C1CN(S(C)(=O)=O)c2cc(CC(=O)OC)ccc2O1 (stereo unspecified)

(continued)
VDR inhibitor | Structure
1% | CCCCOC(=O)n1c(=O)oc2cc(S(=O)(=O)N3CCCCC3)ccc21
-3% | CCOc1ccc2c(c1)C(c1ccc(C)cc1)=NNC(c1ccc(C)cc1)=N2
-3% | Cc1ccc(NC(=O)c2ccc(S(=O)(=O)N3CCCC3)cc2)nc1
7% | CCOC(=O)c1ccccc1NC(=O)CSc1nc(=O)[nH]c2c1CCC2
8% | CC(=O)c1ccc(-c2nnc(CCC(=O)N(C)Cc3c(C)nc4ccccn34)o2)s1
-3% | COc1ccc(S(=O)(=O)n2c(CCN3CCOCC3)nc3ccccc32)cc1
-9% | Nc1nccc(-c2ccc(-n3cnc4ccccc43)cc2)n1
5% | COc1cc2c(cc1OC)/C(=C/C(=O)N1CCOCC1)NC(C)(C)C2
9% | COc1ccc(Cn2ccc3nc(C)c(C(=O)NCc4ccc(OC)cc4OC)cc3c2=O)cc1
-1% | COc1ccc(OC)c(S(=O)(=O)Nc2cccc(-c3ccc4nncn4n3)c2)c1
5% | O=C(CCCOc1ccc(Cl)cc1Cl)NCCc1ccccn1
-12% | CCN(C(=O)CSc1nnc2c3ccccc3n(CC)c2n1)C1CCS(=O)(=O)C1 (stereo unspecified)
5% | NC(=S)N/N=C/c1c(O)ccc2ccccc12
5% | O=C(CSc1nc2c(cnn2-c2cccc(Cl)c2)c(=O)[nH]1)NCC1CCCO1 (stereo unspecified)
? | COc1ccc(NC(=O)CN2CCN(c3nc(-c4cccc(OC)c4)cs3)CC2)cc1
-5% | N#Cc1c(NC(=O)CN2CCN(S(=O)(=O)c3ccc4c(c3)OCCO4)CC2)sc2c1CCC2
-6% | Oc1[nH]c(=S)sc1C=C1N=c2ccccc2=N1
9% | O=S(=O)(NC1CCCCC1)c1ccc(-c2csnn2)s1
-12% | Cc1cc(NC(=O)c2cc(-c3cccs3)nc3ccccc23)no1
-16% | O=C(Nc1ccnn1C1CCN(Cc2cccnc2)CC1)c1ccccc1Cl
-8% | CCN(CC)CCN(C(=O)c1c(F)cccc1F)c1nc2cc(C)cc(C)c2s1
0% | CCn1nnc(C(=O)O)c1C(=O)O
-10% | NS(=O)(=O)c1ccc(NC(=O)COC(=O)CCc2ccc(S(=O)(=O)N3CCOCC3)cc2)cc1
-3% | O=C(COC(=O)c1cccnc1SC(F)F)NC1CC1
18% | COc1ccc(N2CCN(C(=O)c3ccc(NS(=O)(=O)c4cccs4)cc3)CC2)cc1

With a hit mark in VDR inhibitor (from the list above):
VDR inhibitor | Structure
71µM* | NC(=O)c1c(NC(=O)C2CC=CCC2C(=O)O)sc2c1CCCCC2 (stereo unspecified)

The list continues:
VDR inhibitor | Structure
7% | Cc1ccccc1OCC(=O)NC1CCCCCCC1
6% | CCc1ccc(-n2nc(CO)c(C(=O)NCC(c3ccccc3)c3ccccc3)n2)cc1
-1% | Nc1nnc(SCC(=O)NC2CCCC2)s1
-11% | CCOc1c2ccc(C(=O)NCc3ccc(C(F)(F)F)cc3C(F)(F)F)cc2nn1C
-2% | O=S(=O)(Nc1ccccc1N1CCCCC1)c1ccc(F)cc1
-10% | CCOC(=O)C1=C(c2ccccc2)NC(=O)NC1c1ccc(OCC#N)c(OC)c1 (stereo unspecified)
-6% | CC(C)C(=O)Nc1ncc(C(F)(F)F)cc1Cl
4% | Cc1ccc2c(C)c(C(=O)Nc3cccnc3)oc2c1C
-7% | COC(=O)c1cc2ccsc2n1Cc1cccc(F)c1
-12% | COc1ccc(-c2sccc2C(C)C(=O)O)cc1 (stereo unspecified)
-4% | Cc1cccc(C(=O)NC(=S)NNC(=O)COc2c(C)cccc2C)c1
8% | Cc1cc(Br)ccc1NC(=O)CN(C)C(=O)C1CCN(c2ncnc3sc(C)c(C)c23)CC1
-22% | COc1ccc(S(=O)(=O)N(CC(=O)Nc2ccccc2C(=O)N2CCOCC2)c2ccc(F)cc2)cc1
-14% | Cc1ccc(NC(=O)COC(=O)/C=C/c2cccs2)c(C)c1
-6% | CS(=O)(=O)Nc1ccc(C(=O)NCCC2=CCCCC2)cc1
4% | O=C(CSc1nnc(COc2ccccc2)o1)c1ccccc1
-15% | CCc1ccc(NC(=O)C2CCCN(S(=O)(=O)c3ccc4c(c3)CC(C)N4C(C)=O)C2)cc1 (stereo unspecified)
-13% | COCCNC(=O)C1(C(F)(F)F)C/C(=C\CCO)CCCO1 (stereo unspecified)
-1% | CNC(C)C(=O)NC(C(=O)N1CCCC1C(=O)NNc1ccccc1)C(C)C (stereo unspecified)
30% | CC1CCN(c2c(NCc3ccc(C(=O)NCc4cccnc4)cc3)c(=O)c2=O)CC1
-1% | Cc1ccc(NC(=O)[C@H](C)NC(=O)C2CCN(C(=O)[C@@H](N)C(C)C)CC2)cc1
-2% | CC1(C)Cc2ccccc2C(=NCCCC(=O)O)N1
13% | CCOC(=O)C1CCCN(c2cc(C)nc3cc(-c4ccc(F)cc4)nn23)C1 (stereo unspecified)
-3% | C=C(C)C1CC=C(C)/C(=N/NC(=O)c2ccc(NC(=O)CCC)cc2)C1 (stereo unspecified)
-16% | CSc1nc(C)c(C(=O)C[n+]2ccccc2C)cc1C#N

As entered above:
VDR inhibitor result of `CCOC(=O)C1CCCN(c2cc(C)nc3cc(-c4ccc(F)cc4)nn23)C1` (stereo unspecified) = 13%
VDR inhibitor result of `COC(=O)c1cc2ccsc2n1Cc1cccc(F)c1` = -7%

Carrying on:
VDR inhibitor | Structure
-2% | Cc1cccc(NC(=O)c2cc(-c3cc(C)c(C)cc3O)n[nH]2)c1
3% | CCOC(=O)c1sc(NC(=S)NC(=O)C23CC4CC(CC(C4)C2)C3)cc1C
-16% | CCOC(=O)C1CCCN(Cc2ccc(OCc3ccccc3)c(OC)c2)C1 (stereo unspecified)
1% | C=C(C)Cn1c(N2CCCC2)nc2c1c(=O)[nH]c(=O)n2C
-7% | O=C(COC(=O)c1ccccc1O)NCCCc1ccccc1
14% | O=C(O)c1ccc(NC(=O)C2CC=CCC2C(=O)O)cc1 (stereo unspecified)
-1% | COC(=O)c1scc(C)c1NS(=O)(=O)c1ccc(NC(C)=O)cc1
0% | CCc1cccc(NC(=O)c2cc3c(=O)n(Cc4ccccc4)ccc3nc2C)c1
-5% | CCC(C)NC(=O)CCSc1ccc(C)cc1 (stereo unspecified)
-2% | COc1ccc(CCN2C(=O)NC(NS(=O)(=O)c3ccc(Cl)cc3)(C(F)(F)F)C2=O)cc1OC (stereo unspecified)
-11% | O=C(c1ccccc1)N1CCN=C1SCc1ccc([N+](=O)[O-])cc1
7% | C=C[C@@H]1c2cccc(C)c2N(S(=O)(=O)c2ccc(C)cc2)[C@H](c2ccccc2)C1(C#N)S(=O)(=O)c1ccccc1 (stereo partly specified)
-9% | Cc1ccc(S(=O)(=O)n2c(C)nc3cc(C)ccc32)cc1
1% | COc1cc2c3c(c1)-c1c(sn(-c4cc(OC)ccc4OC)c1=S)C(C)(C)N3C(=O)C2=O
4% | COCCNC(=O)Cn1cc(C(=S)N2CCCCC2)c2ccccc21
0% | COc1ccc(CNC(=O)CSc2nc3c(oc4ccccc43)c(=O)n2CC2CCCO2)cc1 (stereo unspecified)
-10% | Cc1nc2ccc(NS(=O)(=O)c3ccc4c(c3)OCCO4)cc2s1
-2% | CCOc1ccc(CC(=O)OCc2cc(=O)n3cc(Br)ccc3n2)cc1
0% | CCOc1ccc(NC(=O)CN(C)C(=O)CSc2ccccc2)cc1OCC
